hNpr1 antagonist = blocks ANP-stimulated signaling of human Npr1 receptor. P16066. HEK293 hNpr1 GloSensor cGMP, ANP-stimulated luminescence. Potency, µM (doses to about 46.3 µM), without a hit: top-dose activity change, negative = inhibition, hits mostly inhibitors. actives 1.6% (n = 76,000). AID 1347048; active = well fitted inhibition curve with a large enough effect; inconclusive = small, poorly fitted or top-dose-only effect; inactive = no such curve, though single readings can be large or run the other way;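 further: nearly all actives have a fitted effect of over 60% in size; nearly all hits also lower the signal before the agonist is added; a reference antagonist and vehicle were the controls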
Target sequence (P16066 whole entry, looked up): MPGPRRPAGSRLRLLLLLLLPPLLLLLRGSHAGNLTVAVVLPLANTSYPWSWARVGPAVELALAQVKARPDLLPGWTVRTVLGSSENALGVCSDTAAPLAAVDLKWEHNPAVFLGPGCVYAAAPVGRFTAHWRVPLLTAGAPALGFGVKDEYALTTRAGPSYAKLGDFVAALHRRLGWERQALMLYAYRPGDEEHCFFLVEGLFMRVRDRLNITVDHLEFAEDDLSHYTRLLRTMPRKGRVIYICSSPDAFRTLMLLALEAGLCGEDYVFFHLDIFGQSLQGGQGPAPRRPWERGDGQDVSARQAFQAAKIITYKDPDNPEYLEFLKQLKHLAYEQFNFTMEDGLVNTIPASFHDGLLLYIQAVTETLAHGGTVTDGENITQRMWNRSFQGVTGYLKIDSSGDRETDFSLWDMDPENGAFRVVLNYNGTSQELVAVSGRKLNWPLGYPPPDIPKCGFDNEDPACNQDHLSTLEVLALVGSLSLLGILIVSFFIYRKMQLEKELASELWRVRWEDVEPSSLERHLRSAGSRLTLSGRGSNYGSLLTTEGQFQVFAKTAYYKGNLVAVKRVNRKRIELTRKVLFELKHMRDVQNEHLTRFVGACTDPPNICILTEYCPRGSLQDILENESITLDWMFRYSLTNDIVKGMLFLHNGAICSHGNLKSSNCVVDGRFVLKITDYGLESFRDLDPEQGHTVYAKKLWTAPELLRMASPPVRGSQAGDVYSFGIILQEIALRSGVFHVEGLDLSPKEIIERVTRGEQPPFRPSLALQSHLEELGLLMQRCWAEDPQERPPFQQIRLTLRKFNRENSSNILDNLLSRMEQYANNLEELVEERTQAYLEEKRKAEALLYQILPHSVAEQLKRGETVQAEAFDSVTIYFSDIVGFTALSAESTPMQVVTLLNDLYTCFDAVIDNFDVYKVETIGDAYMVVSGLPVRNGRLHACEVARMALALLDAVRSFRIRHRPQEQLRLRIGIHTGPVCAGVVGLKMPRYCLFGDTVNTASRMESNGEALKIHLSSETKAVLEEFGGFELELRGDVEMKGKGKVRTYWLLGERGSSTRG
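Compound pre-incubated 30 min at room temperature on GloSensor-loaded HEK293 cells stably carrying hNpr1 and the pGS-40F cGMP biosensor. Stimulation uses hNppA at 0.1 nM final; luminescence is taken at baseline and 20 min post-agonist.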
Numbers without * were called inactive; ? = inconclusive; [ ] = remark or other dose. On the % scale 0 is the no-effect control and ±100 the full control effect; potency means the concentration at half of the fitted maximal effect.

SMILES	hNpr1 antagonist
C[S+](=O)([O-])c1ccc(OCC2CN(Cc3ccccc3)C(=O)c3c(ccnc3-c3ccc(OCC(=O)O)cc3)O2)cc1 (configuration not stated)	1.5%
Cc1cnc(C(=O)N[C@@H]2CCC[C@@H]2C(=O)Nc2cccc(F)c2C)cn1	-8.8%
O=C1N(Cc2cccc(F)c2F)CCCC1(O)CNCc1cccc(F)c1 (configuration not stated)	4.6%
COc1ccc(-c2nc(C(C)C)nc3c2CCN(C(=O)C2CCCC2)CC3)cc1	-12.0%
CC(=O)N1CCC(Cc2noc(-c3ccncc3)n2)C1 (configuration not stated)	1.7%
CC(C)(C)NC(=O)N1CC(c2noc(C3CCCN3CC3CC3)n2)C1 (configuration not stated)	1.8%
COc1ccc(C(=O)Nc2ccc3c(N4CCOCC4)ncnc3c2)c(C)c1	-0.2%
Cc1ccccc1[S+](=O)([O-])N1CCC2OCCN(Cc3ccccc3F)C(=O)C2C1 (configuration not stated)	1.0%[70.6 µM]
C=CCN(C)C(=O)[C@@H]1Cc2cn(Cc3cc(C)on3)c3cccc(c23)[C@H](CC(C)C)N1	2.0%[70.6 µM]
CC1=C[C@@H](CN(C)Cc2cccnc2)[C@H](C(C)C)C[C@H]1Cc1nnc(-c2ccc([N+](=O)[O-])cc2)o1	20µM*
CCNC(=O)N1CCOC(CN(CC(C)C)C(=O)c2cccc(OC)c2)C1 (configuration not stated)	3.2%
O=C(NC[C@H]1O[C@H](Cc2cc(-c3ccc(F)cc3)on2)CC[C@@H]1O)NC1CCCCC1	10µM*
O=C(N[C@H]1CO[C@H]2[C@@H]1OC[C@@H]2Nc1nccc(-c2cccc(F)c2)n1)C1CC1	-0.9%[70.6 µM]
CCc1ccc(CNC(=O)[C@@]23CCCC[C@H]2N(C)C(=O)CC3)cc1	-2.2%
NC(=O)[C@@H](Cc1ccccc1)NC(=O)[C@@H]1C[C@@H](NS(=O)(=O)c2cccs2)CCN1C(=O)CSCC(=O)O	6.0%
c1ccc([C@@H]2C[C@H]2c2nc(C3CCOCC3)nn2-c2cccnc2)cc1	6.5%
O=C(NCc1ccc(Cl)cc1)[C@@H]1Cc2nc[nH]c2CN1Cc1cc2ccccc2o1	3.6%[70.6 µM]
COCCC1(NS(C)(=O)=O)CCN(C(=O)c2ocnc2C)CC1	1.0%
COc1ccc(C(=O)Nc2ccc(C(O)[C@H]3COCC(=O)N3CC(C)C)cc2)cc1 (some centres not stated)	-1.6%[70.6 µM]
O=C([C@@H]1C[C@H](Oc2cccnc2)CN1C(=O)c1ccsc1)N1CCOCC1	0.1%
COC(=O)[C@@H]1Cc2ncn(Cc3ccc(OC)cc3)c2CN1C(=O)CC(C)(C)CC(=O)O	4.7%
CCN(C(=O)CCC(=O)N1CCC(C)(c2noc(C)n2)CC1)c1ccccc1	4.4%
O=C(Cn1ccn2nc3c(c2c1=O)CCCCC3)Nc1ccc2c(c1)OCO2	2.8%
CC(C)CNC(=O)C1COC2(CCN(C(=O)c3ccc(F)cc3F)CC2)N1C(=O)c1ccccc1 (configuration not stated)	-10.8%
Cc1noc(-c2cn(C3CCN(C(=O)COc4ccc(F)cc4)C3)nn2)n1 (configuration not stated)	2.6%
Cc1cnc(CC2CCN(C(=O)NC(C)C)CC2)n1Cc1ccc(F)cc1	1.9%
COCCN1C(=O)c2cccn2CC1CNC(=O)CCc1c[nH]c2ccccc12 (configuration not stated)	1.5%
COCCOCC(=O)N1CCCCCCNC(=O)[C@@H]2C[C@@H](c3nc(Cc4ccccc4)no3)C[C@@H]21	-1.3%
CN(Cc1ccccc1)c1ccc(C(=O)N2CCC(CN3CCCC3=O)CC2)cn1	-0.6%
COc1ccc(-c2cc(N3CCN(C(=O)Cc4ccc(Br)cc4)CC3)n[nH]2)cc1	?

Among those listed so far, 3 have a COOH group:
SMILES	hNpr1 antagonist
C[S+](=O)([O-])c1ccc(OCC2CN(Cc3ccccc3)C(=O)c3c(ccnc3-c3ccc(OCC(=O)O)cc3)O2)cc1 (configuration not stated)	1.5%
NC(=O)[C@@H](Cc1ccccc1)NC(=O)[C@@H]1C[C@@H](NS(=O)(=O)c2cccs2)CCN1C(=O)CSCC(=O)O	6.0%
COC(=O)[C@@H]1Cc2ncn(Cc3ccc(OC)cc3)c2CN1C(=O)CC(C)(C)CC(=O)O	4.7%

Another view of two compounds above:
> CC(=O)N1CCC(Cc2noc(-c3ccncc3)n2)C1 (configuration not stated)
  hNpr1 antagonist: 1.7%
> CCc1ccc(CNC(=O)[C@@]23CCCC[C@H]2N(C)C(=O)CC3)cc1
  hNpr1 antagonist: -2.2%

The listing continues:
SMILES	hNpr1 antagonist
CN(C)c1cnn(CC(=O)N2CCCC(c3ccc(Cl)cc3)C2)c(=O)c1 (configuration not stated)	-2.6%
CCNC(=O)C1CCCN(S(=O)(=O)c2ccccc2)CCC(=O)NCC1 (configuration not stated)	3.3%
O=C(C1CC1)N1CCN(C2CCN(Cc3cccnc3)C2=O)CC1 (configuration not stated)	4.6%
O=C(Nc1ccc(F)cc1F)N1CCC(OC2CCN(Cc3ccccc3)CC2)CC1	5.1%
CCc1nc(-c2c3n(c(=O)n(Cc4ccc(C(=O)OC)o4)c2=O)CCCC3)no1	12.8%
Cc1ccccc1[C@H]1C[C@@H](O)[C@@H](O)[C@@H]1NS(=O)(=O)c1ccc(C(F)(F)F)cc1	-3.6%[70.6 µM]
O=C1NCCCCCN(C(=O)c2ccsc2)[C@@H]2C[C@@H](C(=O)N3CCc4ccccc4C3)C[C@H]12	0.6%
O=C(c1cn[nH]c1-c1ccc(F)cc1)N1CCC2(CC1)CC(O)CCO2 (configuration not stated)	0.7%
O=C(NC1CC1)[C@@H]1C[C@H](Oc2cccnc2)CN1S(=O)(=O)c1cccc(F)c1	-2.7%
Cc1ccc(NC(=O)Cn2nc3n(c2=O)CCCCC3)c(C)c1	-2.8%
COc1ccc(NC(=O)N2CCC(Oc3ncccc3C(=O)N3CCOCC3)C2)c(C)c1 (configuration not stated)	-0.1%
C=CCC1(CO)CCCN(Cc2cc(C3CCCCC3)no2)C1 (configuration not stated)	-15.5%
CCN1CCN(CCNC(=O)CCC[C@@H]2[C@H]3CCCN4CCC[C@@H](CN2C(C)=O)[C@@H]34)CC1	0.4%
O=C(NCc1ccncc1)c1c(OCC2CC2)cc(=O)n2c1CCCCC2	3.3%
Cc1ccc(OCc2nc(C3CCCCN3C(=O)c3cc(F)ccc3F)no2)cc1 (configuration not stated)	-11.5%
O=c1n(-c2ccc([N+](=O)[O-])cc2)nc2n1CCN(Cc1cccc3ccccc13)C2	-19.6%
COCCN1C(=O)CS(=O)(=O)C12CCN(C(=O)c1cc(F)cc(F)c1)CC2	-0.8%
CN1C(=O)CCC2(CNC(=O)c3cnccn3)CCC=C12 (configuration not stated)	17.9%
CCn1c(C2CCCN(C(=O)c3nnn(Cc4ccccc4)c3C)C2)n[nH]c1=O (configuration not stated)	-2.3%
CNC(=O)[C@@H]1C[C@H](Oc2ccccc2)CN1S(=O)(=O)c1cc(OC)ccc1OC	-1.3%
Cc1ncsc1CN(Cc1ccccc1)C(=O)CCn1nnnc1CN1CCOCC1	0.0%
CC(C)CCN1CCCC2(CC(Cc3ccccc3)=NO2)C1 (configuration not stated)	8.9%[70.6 µM]
Cc1ccc(F)cc1S(=O)(=O)N[C@@H]1CN(c2ncccn2)C[C@H]1CN(C)C	-4.1%
Cc1ccccc1CC(=O)N1CCC(Cc2nc(-c3cnccn3)no2)CC1	-0.3%
Cc1cc(C(=O)N2CCCCCCNC(=O)[C@@H]3C[C@@H](c4nc(-c5cccnc5)no4)C[C@@H]32)n(C)n1	-0.5%
O=C1CCCCC(C(=O)NCc2ccccc2)N1 (configuration not stated)	-8.1%
COc1ccc(-c2ccc3c(n2)CN(CCOc2ccccc2)C(=O)CO3)cc1	?
COc1nccnc1NC1CCN(C(=O)CCc2ccccc2)CC1	-3.6%
COc1ccc(C(=O)N2CCCN(C(=O)C3CC3)C(c3ccccc3)CC(=O)NCC2)cc1F (configuration not stated)	1.3%
CCOCCOC1CCN(C(=O)Nc2ccc3c(c2)OCCO3)CC1	-4.4%
COCCNC(=O)C1COC2(CCC(C)CC2)N1C(=O)c1cc(F)cc(F)c1 (configuration not stated)	-2.8%
CC(C)CNC(=O)N1CCCCCCNC(=O)[C@@H]2CCCC[C@@H]21	0.3%
CC1=C[C@@H](CNC(=O)CC(C)(C)CC(=O)O)[C@H](C(C)C)C[C@H]1Cc1nc2ccccc2[nH]1	2.1%
Cc1cc(C(=O)N2CCC3(CCC(=O)N(CCCn4ccnc4)C3)CC2)c(C)o1	7.7%
C#CCN(CC=C)Cc1cnc(S(=O)(=O)CC)n1CCCc1ccccc1	2.8%
COc1cccc(OCc2nc(C(=O)N(C)Cc3cnc4ccccn34)co2)c1	?
CC(C)(C)C(=O)N1CCC2(CC1)C(=O)NCN2Cc1ccc(Cl)cc1	20.3%
Cc1nn(-c2ccccc2)c(=O)n1CC(=O)NCC1OCCc2ccccc21 (configuration not stated)	-0.5%
O=c1c2cc(-c3ccccc3)nn2ccn1CC(O)c1ccccc1 (configuration not stated)	2.5%
O=C(c1ccc2[nH]ccc2c1)N1CCCC(n2cc(-c3nc(C4CC4)no3)nn2)C1 (configuration not stated)	?
Cc1ccc2c(c1)N(CC(=O)N1[C@@H]3CC[C@H]1CNC(=O)C3)C(=O)CO2	6.9%
O=c1cc(N2CCOCC2)oc2c(-c3ccccc3O)nccc12	-0.1%[70.6 µM]
COc1ccc(CC(=O)N2C[C@@H](CO)[C@H](c3ccncc3)C2)cc1	-13.1%
CCCN(CC1CCOC1)S(=O)(=O)Cc1ccccc1Cl (configuration not stated)	0.9%
CN1CC2(CCN(Cc3ccc(-c4ccc(Cl)cc4)o3)C2)OC1=O (configuration not stated)	-13.3%
CCOc1ccccc1C1NC(=O)N(CC(=O)Nc2c(C)cccc2Cl)C2=C1C(=O)OC2 (configuration not stated)	2.0%
C[S+](=O)([O-])N1CC2(Cc3ccccc31)CN([S+](=O)([O-])c1cccs1)C2	-17.9%
Cc1nc(C)c(C(=O)N2CCC(N3C(=O)C4(CCCC4)C3c3scnc3C)CC2)s1 (configuration not stated)	0.7%
CC(C)CNC(=O)c1ccc(CN2C(=O)NC3(CCS(=O)(=O)CC3)C2=O)cc1	-0.4%
OCCO[C@@H]1COCC[C@H]1NC1CCN(c2ccc3c(c2)CCC3)CC1	3.1%
COCCOCC1(CNC(=O)c2nc3ccccc3[nH]2)C[C@@H](O)[C@@H](O)C1 (some centres not stated)	5.3%[70.6 µM]
Cc1cc(CN2CCC3(CC2)CC(c2ccccc2)C(=O)N(C2CC2)C3)on1 (configuration not stated)	8.5%
O=C(NCCc1noc(C2CC2)n1)c1ccc(Cl)s1	-2.1%
CN(CCn1cc(-c2nccn2C)nn1)S(C)(=O)=O	2.0%
CN1C(=O)[C@@H]2C[C@@H](CN2C2CCC2)Oc2ccccc21	-15.7%[70.6 µM]
O=C(Cn1cccc1-c1nc(-c2ccc3c(c2)OCO3)no1)NCc1ccccc1Cl	-3.3%
O=C1[C@@H]2C[C@@H](O)CN2C2(CN(C3CCCCC3)C2)C(=O)N1Cc1ccccc1Cl	6.0%[70.6 µM]
COc1cc(NC(=O)O[C@@H]2CO[C@H]3[C@@H]2OC[C@@H]3NC(=O)c2cccs2)cc(OC)c1	2.8%[70.6 µM]
COc1cccc(-c2noc(CC3CCN(C(=O)c4ccc(F)c(F)c4)CC3)n2)c1	6.31µM*
Cc1nn2c(c1-c1ccccc1C(C)C)N(C(=O)c1cc3ccccc3n1C)CCC2	?

(continued)
SMILES	hNpr1 antagonist
Cc1ccc(NC(=O)N2CCCN(S(C)(=O)=O)C(c3ccccc3)CC(=O)NCC2)cc1C (configuration not stated)	7.0%
CN(Cc1cccnc1)c1ccc2ncc(Nc3cc(F)cc(N4CCOCC4)c3)n2n1	?
COc1ccc2[nH]c(C[C@@H]3C[C@@H](C(C)C)[C@H](CNC(=O)Cn4cnnn4)C=C3C)nc2n1	1.3%
O=C(C1CC1)N1CCn2c(nn(-c3ccc([N+](=O)[O-])cc3)c2=O)C1	-0.6%[70.6 µM]
c1ccc2c(c1)CCN2C1CN(Cc2ccsc2)C1	0.0%[70.6 µM]
COc1ccc([C@H]2C[C@@H](O)[C@@H](O)[C@@H]2NC(=O)c2cc(C)n(C)n2)cc1	3.7%[70.6 µM]
COC(=O)[C@@H]1Cc2ncn(C(C)C)c2CN1S(=O)(=O)c1ccc(OC)cc1	2.2%[70.6 µM]
CCCS(=O)(=O)N[C@H]1CO[C@H]2[C@@H]1OC[C@H]2OC(=O)Nc1ccc(C(C)=O)cc1	-0.5%[70.6 µM]
Cc1cc(C(=O)Nc2ccc(C(O)[C@H]3COCC(=O)N3)cc2)n(C)n1 (some centres not stated)	0.6%[70.6 µM]
CN1CCC([C@@H]2CN(C(=O)NCCc3ccccc3)C[C@H]2C(N)=O)CC1	6.9%
CC(Cn1cccn1)C(=O)N1CCC(CCC(=O)Nc2ccc3c(c2)OCCO3)CC1 (configuration not stated)	-5.1%
COc1ccc(C(=O)Nc2ccc(-c3noc([C@@H]4CCCN4Cc4ccc(C(F)(F)F)cc4)n3)cn2)cc1	11.2µM*
COCCN1CCOc2nc(-c3cc(F)cc(OC)c3)ncc2C1=O	?
C[C@H]1CCCN1C(=O)c1nnc(COc2cccc(C(F)(F)F)c2)n1-c1cccnc1	0.2%[70.6 µM]

An excerpt; rates above refer to the full screens.
